Assay outcomes (PubChem BioAssay)
Rango complex inh – qHTS Assay for Inhibitors of Rango (Ran-regulated importin-beta cargo) - Importin beta complex formation | Importin subunit beta-1 (Homo sapiens), Q14974 | Rango CFP/YFP FRET sensor + importin beta, 45 min | Potency, µM (top dose mostly 92.2 µM), inactives show at the highest dose inhibition of complex formation | 340,000 tested, 0.031% active | AID 540263, 2011; active = rising FRET ratio curve, often small or poorly fitted; inconclusive = mostly compound fluorescence or quenching in the first reads; inactive = flat curves in all reads;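 further: potency means the concentration at half of the fitted maximal effect; 0% = DMSO wells and 100% = buffer wells lacking importin beta; nearly all actives have a fitted effect of over 15% in size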
Target sequence (Q14974 whole entry, looked up): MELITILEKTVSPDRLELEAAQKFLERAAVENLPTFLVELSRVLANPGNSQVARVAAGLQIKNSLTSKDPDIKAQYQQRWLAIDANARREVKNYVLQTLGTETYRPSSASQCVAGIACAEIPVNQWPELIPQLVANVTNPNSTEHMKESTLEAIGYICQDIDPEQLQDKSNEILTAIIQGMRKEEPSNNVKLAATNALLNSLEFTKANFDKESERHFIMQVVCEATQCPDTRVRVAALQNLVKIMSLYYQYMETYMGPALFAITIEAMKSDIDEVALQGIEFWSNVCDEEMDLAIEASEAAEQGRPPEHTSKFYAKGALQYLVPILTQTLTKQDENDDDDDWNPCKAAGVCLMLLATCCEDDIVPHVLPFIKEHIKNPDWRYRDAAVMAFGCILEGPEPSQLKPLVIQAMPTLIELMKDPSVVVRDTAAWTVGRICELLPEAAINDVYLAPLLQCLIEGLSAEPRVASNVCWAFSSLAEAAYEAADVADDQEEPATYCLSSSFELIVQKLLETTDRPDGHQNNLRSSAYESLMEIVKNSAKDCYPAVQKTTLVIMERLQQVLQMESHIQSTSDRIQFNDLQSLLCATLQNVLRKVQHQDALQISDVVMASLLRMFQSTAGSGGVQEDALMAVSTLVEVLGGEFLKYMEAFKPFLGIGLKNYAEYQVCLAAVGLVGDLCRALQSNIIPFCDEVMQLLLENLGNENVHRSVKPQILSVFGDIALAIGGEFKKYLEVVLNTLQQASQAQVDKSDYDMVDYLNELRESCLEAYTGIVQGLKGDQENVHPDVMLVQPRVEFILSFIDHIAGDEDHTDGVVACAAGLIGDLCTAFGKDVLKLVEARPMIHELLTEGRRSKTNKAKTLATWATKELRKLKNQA
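FRET biosensor (snurportin 1 IBB flanked by EYFP and cerulean), 50 nM, with compound 5 min, then 0.125 microM importin beta in PBS, 1 mM DTT, 0.02% Tween-20, 0.1% BSA. CFP/YFP ratio read after 45 min at room temperature; pre-read flags interference.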
GLA inh pH 4.5 – qHTS Assay for Inhibitors of Human alpha-Galactosidase at pH 4.5; Alpha-galactosidase A (Homo sapiens), P06280; AID 1467, 2008; purified enzyme, 4-MU-alpha-Gal fluorescence, pH 4.5; 230,000 tested, under 10 active; activity change, negative = inhibition, % at 105 µM; inconclusive = small, poorly fitted or top-dose-only inhibition, or a rising curve; inactive = flat fitted curve, though single readings scatter; no compound was filed as active;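 further: 0% = full activity with enzyme and -100% = basal without enzyme; dose as in the result columns while the protocol names 77 µM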
Rango release inh – qHTS Assay for Inhibitors of RanGTP induced Rango (Ran-regulated importin-beta cargo) - Importin beta complex dissociation | Biochemical FRET Rango-importin beta, RanGTP-induced dissociation | Snurportin-1 (Homo sapiens) + GTP-binding nuclear protein Ran (Homo sapiens) + Importin … | Potency, µM (series often up to 46.1 µM), for the others: at the top dose activity change, negative = inhibition | 340,000 tested, 0.071% active; active means falling FRET ratio curve, often poorly fitted, with flat reads before Ran was added; inconclusive means other falling curves, or compound fluorescence or quenching; inactive means flat or rising ratio curve;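 further: potency means the concentration at half of the fitted maximal effect; % of control where 0% means no effect; nearly all actives have a fitted effect of over 45% in size; -100% = wells without RanGTP and RCC1; the record marks most hits as doubtful in a second field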
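Rango/importin beta premix (0.1/0.25 uM final), PBS + 1 mM DTT + 0.02% Tween-20 + 0.1% BSA; cpd 5 min RT; FRET pre-read; + RanGTP-RCC1 (0.6 uM Ran, 2 mM GTP, 0.2 uM RCC1); 45 min RT; FRET post-read, ex 430, em 486/530 nm.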
miR-21 FLuc – qHTS Assay for Modulators of miRNAs and/orActivators of miR-21 | HeLa miR-21 FLuc reporter, luciferase, 48 h | Potency, µM (highest dose often 38.3 µM), without a hit: top-dose reporter change, positive = more light | 340,000 tested, under 10 active; active = well fitted rising curve with a large enough effect; inconclusive = small, poorly fitted or top-dose-only effect; inactive = no such curve, though single readings can be large or run the other way;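 further: % of control where 0% means no effect; miR-21 action dims this reporter so a rising signal means less miR-21 action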
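HeLa cells stably expressing CMV-driven firefly luciferase with a downstream miR-21 binding sequence, endogenously expressing miR-21, were treated with titrations (up to about 40uM final) for 48 hours at 37 degree Celsius. Luciferase luminescence was read after lysis.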
Numbers without * were called inactive. An excerpt; rates above refer to the full screens.

O=S(=O)(Nc1cccc2c1ccc1cccn12)c1cccs1 was read as Rango complex inh inconclusive, GLA inh pH 4.5 3, Rango release inh inconclusive and miR-21 FLuc -7%.
Screening CN(Cc1ccccc1)c1nc(CN2CCOCC2)nc2scc(-c3ccccc3)c12 returned Rango complex inh -0.3%, GLA inh pH 4.5 -5, Rango release inh -5% and miR-21 FLuc -6%.
For CC(C)(C)CN1CCC(Oc2cccc(C(=O)NCCCOc3cccnc3)c2)CC1 the results were Rango complex inh inconclusive, Rango release inh -23% and miR-21 FLuc 0%.
For CCN(CC(=O)Nc1ccc(NC(C)=O)cc1)C(=O)Cc1ccccc1F the results were Rango complex inh 0.0%, Rango release inh 2% and miR-21 FLuc -3%.
Screening Cc1cccc(N2CCN(C(=O)CS(=O)(=O)Cc3nc(-c4ccccc4F)oc3C)CC2C)c1 (stereo not given) returned Rango complex inh 3.0%, GLA inh pH 4.5 -3, Rango release inh 10% and miR-21 FLuc 22%.
CCN1C(=O)C(=O)N(CC(=O)Nc2cccc(C(F)(F)F)c2)C1=O was read as Rango complex inh -0.5% and Rango release inh -1%.
For O=C(Nc1cc(C(F)(F)F)ccc1F)C1CCCCC1 the results were Rango complex inh 0.0%, GLA inh pH 4.5 3, Rango release inh -3% and miR-21 FLuc -3%.
`CN=C(NC(=O)Nc1c(C)cccc1C)NC(=O)Nc1c(C)cccc1C` gave Rango complex inh 0.9%, GLA inh pH 4.5 -1, Rango release inh -15% and miR-21 FLuc -2%.
`CCc1nnc(NC(=O)C23CC4CC(CC(C4)C2)C3)s1` gave Rango complex inh -0.2%, Rango release inh 12% and miR-21 FLuc -49%.
Screening COc1ccccc1-c1ccc(SCC(=O)NC2CCCC2)nn1 returned Rango complex inh -0.4% and Rango release inh 3%.
CCCCC(=O)Nc1cccc(-c2cn3ccsc3n2)c1 was read as Rango complex inh 0.1%, GLA inh pH 4.5 3, Rango release inh 3% and miR-21 FLuc -45%.
Cn1cccc1/C=C1\SC(=O)N(CC(=O)Nc2ccc(Cl)cc2)C1=O was read as Rango complex inh 8.6%, GLA inh pH 4.5 4, Rango release inh 2% and miR-21 FLuc -1%.
COc1ccc(OC)c(NC(=O)CSc2nc3cccnc3n2C)c1 was read as Rango complex inh 0.8%, GLA inh pH 4.5 -6, Rango release inh -5% and miR-21 FLuc -2%.
For CCOc1cc(C2Nc3cccc4cccc(c34)N2)ccc1O the results were Rango complex inh 0.0%, GLA inh pH 4.5 -6, Rango release inh -3% and miR-21 FLuc -1%.
`COc1ccc2c(c1OC)C(=O)N1C2SC[C@H]1C(=O)NC1CCCC1` (stereo not given in full) gave Rango complex inh 3.1%, Rango release inh inconclusive and miR-21 FLuc 0%.
For COc1ccccc1C(=O)NC(=S)N1CCc2ccccc21 the results were Rango complex inh -4.6%, GLA inh pH 4.5 1, Rango release inh -1% and miR-21 FLuc -26%.
Screening CC(c1ccccc1)C1C(C#N)=C(N)OC2=C1C(=O)CC(C)(C)C2 (stereo not given) returned Rango complex inh 0.3%, GLA inh pH 4.5 9, Rango release inh 10% and miR-21 FLuc 9%.
Screening COc1ccc2c(c1)C(C)CC(C)(C)N2C(=O)CSc1nc2ccccc2s1 (stereo not given) returned Rango complex inh 2.5%, GLA inh pH 4.5 -3, Rango release inh -23% and miR-21 FLuc 11%.
`Cc1ccc(-n2c(SCC(=O)NCc3ccco3)nnc2-c2cccnc2)c(C)c1` gave Rango complex inh 0.0%, GLA inh pH 4.5 -1, Rango release inh 5% and miR-21 FLuc 21%.
O=C(CSc1ncnc2sc3c(c12)CCCC3)c1ccccc1 was read as Rango complex inh 3.4%, GLA inh pH 4.5 -4, Rango release inh 27% and miR-21 FLuc -10%.
Screening CN(CCC1CCOCC1)C(=O)C1CCC(=O)N(CCc2ccccc2)C1 (stereo not given) returned Rango complex inh -2.4%, Rango release inh -2% and miR-21 FLuc -2%.
`O=C(COc1c(Br)cc(Br)cc1Br)N/N=C/c1ccco1` gave Rango complex inh -3.4%, Rango release inh 10% and miR-21 FLuc 3%.
`COc1cc(C)ccc1OCC(=O)NC1CCCCCC1` gave Rango complex inh 1.5% and Rango release inh 14%.
Screening Cn1c(=O)n(C)c2cc(/C=N/n3cnnc3)ccc21 returned Rango complex inh 2.6%, GLA inh pH 4.5 8, Rango release inh 11% and miR-21 FLuc -9%.

Quoted from the entries so far for reference:
O=S(=O)(Nc1cccc2c1ccc1cccn12)c1cccs1 was read as Rango complex inh inconclusive, GLA inh pH 4.5 3, Rango release inh inconclusive and miR-21 FLuc -7%.
Screening CN(Cc1ccccc1)c1nc(CN2CCOCC2)nc2scc(-c3ccccc3)c12 returned Rango complex inh -0.3%, GLA inh pH 4.5 -5, Rango release inh -5% and miR-21 FLuc -6%.

Four entries already listed, sorted by formula weight, falling:
Screening COc1ccc2c(c1)C(C)CC(C)(C)N2C(=O)CSc1nc2ccccc2s1 (stereo not given) returned Rango complex inh 2.5%, GLA inh pH 4.5 -3, Rango release inh -23% and miR-21 FLuc 11%.
Screening CN(CCC1CCOCC1)C(=O)C1CCC(=O)N(CCc2ccccc2)C1 (stereo not given) returned Rango complex inh -2.4%, Rango release inh -2% and miR-21 FLuc -2%.
Screening CC(c1ccccc1)C1C(C#N)=C(N)OC2=C1C(=O)CC(C)(C)C2 (stereo not given) returned Rango complex inh 0.3%, GLA inh pH 4.5 9, Rango release inh 10% and miR-21 FLuc 9%.
Screening Cn1c(=O)n(C)c2cc(/C=N/n3cnnc3)ccc21 returned Rango complex inh 2.6%, GLA inh pH 4.5 8, Rango release inh 11% and miR-21 FLuc -9%.

Carrying on.
`COc1ccc(NC(=O)CN(C)C(=O)c2ccc(-c3cccc(C(F)(F)F)c3)o2)cc1` gave Rango complex inh 0.0%, Rango release inh 0% and miR-21 FLuc -27%.
O=C(C[n+]1ccc(-c2cc(C(=O)Nc3cccc(C(F)(F)F)c3)c3ccccc3n2)cc1)c1cccc([N+](=O)[O-])c1 was read as Rango complex inh -0.3%, GLA inh pH 4.5 -3, Rango release inh -7% and miR-21 FLuc 15%.
COCc1cc(C)nc(NCCc2ccccc2)c1C#N was read as Rango complex inh -1.6%, GLA inh pH 4.5 8, Rango release inh 3% and miR-21 FLuc -32%.
OCC1OC(n2cnc3c(NCc4ccccc4O)ncnc32)C(O)C1O (stereo not given) was read as Rango complex inh -0.4% and Rango release inh 1%.
`COc1ccc(CCNC(=O)c2cc3c(=O)n4ccccc4nc3n(CCCN3CCOCC3)c2=N)cc1` gave Rango complex inh inconclusive, Rango release inh inconclusive and miR-21 FLuc 6%.
CCC(CC)C(=O)Nc1cc([N+](=O)[O-])ccc1F was read as Rango complex inh -3.0%, GLA inh pH 4.5 -2, Rango release inh 0% and miR-21 FLuc -1%.
For Cc1cccc(NC(=S)N/N=C2/CCCCc3ccccc32)c1 the results were Rango complex inh -3.0%, GLA inh pH 4.5 -5, Rango release inh 0% and miR-21 FLuc -6%.
For COc1cc(NC(=S)N2CCN(C)CC2)cc(OC)c1 the results were Rango complex inh -0.3%, Rango release inh 16% and miR-21 FLuc 1%.
`O=C(O)C1CCCC2CN3CCc4c([nH]c5ccccc45)C3C(O)C21` (stereo not given) gave Rango complex inh inconclusive, Rango release inh inconclusive and miR-21 FLuc -1%.
`O=C(Nc1cc(=O)[nH]c2ncnn12)c1ccc(Cl)cc1Cl` gave Rango complex inh 1.1%, GLA inh pH 4.5 -7, Rango release inh -13% and miR-21 FLuc -2%.
Screening CN(Cc1ccco1)C(=O)CN1C(=O)NC(c2ccccc2)(c2ccccc2)C1=O returned Rango complex inh -1.3% and Rango release inh -13%.
`CCn1c(SCc2nc3sc(C(=O)O)c(C)c3c(=O)[nH]2)nnc1-c1ccc(Cl)cc1` gave Rango complex inh -1.7%, GLA inh pH 4.5 18, Rango release inh 11% and miR-21 FLuc -2%.
For COc1ccc(NC(=O)CSc2nc3ccccc3c(=O)n2CCNC(C)=O)c(OC)c1 the results were Rango complex inh 7.0%, GLA inh pH 4.5 3, Rango release inh -3% and miR-21 FLuc 2%.
`COc1cc(-c2nc3ccccn3c2N)ccc1O` gave Rango complex inh -2.6%, Rango release inh inconclusive and miR-21 FLuc -10%.
Screening CCn1c(SCC(=O)Nc2ccccc2OC)nc2ccccc2c1=O returned Rango complex inh -5.0%, GLA inh pH 4.5 4, Rango release inh 28% and miR-21 FLuc -1%.
O=C(COc1ccccc1Cl)NCCCNC(=O)c1cnccn1 was read as Rango complex inh -0.6%, Rango release inh inconclusive and miR-21 FLuc -1%.
Cc1ccc(C)c(CNS(=O)(=O)c2c(C)[nH]c(C)c2C(=O)N2CCCC2)c1 was read as Rango complex inh 0.8%, Rango release inh 1% and miR-21 FLuc -1%.
For Cn1cnc2nc3n(c2c1=O)CCC3 the results were Rango complex inh 6.8%, GLA inh pH 4.5 7, Rango release inh 4% and miR-21 FLuc -6%.
Screening Oc1ccc(NC(=S)Nc2ccc(O)cc2)cc1 returned Rango complex inh -4.9%, GLA inh pH 4.5 7, Rango release inh 5% and miR-21 FLuc -4%.
Screening CCCC(=O)c1ccc(N2CCN(C(=O)c3ccc(Br)cc3)CC2)c(F)c1 returned Rango complex inh -0.2%, GLA inh pH 4.5 -6, Rango release inh -9% and miR-21 FLuc 0%.
For O=C(CSCc1ccc([N+](=O)[O-])cc1)Nc1ccccc1C(=O)O the results were Rango complex inh 2.8%, GLA inh pH 4.5 -2, Rango release inh inconclusive and miR-21 FLuc -33%.
Screening O=C(Nc1ccccc1C(=O)Nc1ccccn1)c1cc(F)c(F)cc1Cl returned Rango complex inh 1.3%, Rango release inh 4% and miR-21 FLuc 5%.
Screening CC(C)c1ccc(/C=N/NC(=O)c2nnn(-c3nonc3N)c2CSC2=NCCS2)cc1 returned Rango complex inh 3.1%, GLA inh pH 4.5 -2, Rango release inh 0% and miR-21 FLuc -7%.
`C/C(=C\C(=O)c1ccccc1)Nc1ccc(Cl)c(Br)c1` gave Rango complex inh 1.8% and Rango release inh -11%.
`COc1ccc(NC(=O)Nn2cnnc2)cc1OC` gave Rango complex inh 6.8%, Rango release inh -17% and miR-21 FLuc -5%.
Screening CCOC(=O)C1CCCN(C(=O)c2ccc([N+](=O)[O-])c(C)c2)C1 (stereo not given) returned Rango complex inh -1.7%, GLA inh pH 4.5 5, Rango release inh -10% and miR-21 FLuc -1%.
For Cc1cccc(OCc2nnc(SCc3nc4cc(C(F)(F)F)ccc4c(=O)[nH]3)o2)c1 the results were Rango complex inh inconclusive, GLA inh pH 4.5 -5, Rango release inh inconclusive and miR-21 FLuc -8%.
O=C(Nc1cccc(S(=O)(=O)N2CCCCC2)c1)C1=NN(c2ccccc2)C(=O)CC1 was read as Rango complex inh 3.9% and Rango release inh -17%.
Cc1ccccc1OCCN1C(=O)C(=O)c2cccc(C)c21 was read as Rango complex inh -2.2%, GLA inh pH 4.5 -8, Rango release inh -1% and miR-21 FLuc -2%.
For CCOc1ccc(C(C)C)cc1S(=O)(=O)N1CCN(C(=O)c2ccco2)CC1 the results were Rango complex inh -1.1%, Rango release inh 3% and miR-21 FLuc -6%.
`CCCCN(Cc1cc2ccccc2[nH]c1=O)S(=O)(=O)c1ccc(C)cc1` gave Rango complex inh -1.8%, Rango release inh 0% and miR-21 FLuc 17%.
`COc1ccc(NS(=O)(=O)c2cccc(Cl)c2Cl)cc1S(=O)(=O)N1CCCCC1` gave Rango complex inh 0.7%, GLA inh pH 4.5 -19, Rango release inh -12% and miR-21 FLuc 19%.
For O=C(O)c1cccc(O)c1O the results were Rango complex inh -1.0% and Rango release inh -7%.
`CC1CC(C)CN(CCCNC(=O)Cn2ncc3c(=O)oc4ccccc4c32)C1` (stereo not given) gave Rango complex inh -1.2%, GLA inh pH 4.5 -3, Rango release inh -8% and miR-21 FLuc -2%.
